# Rango complex inh – prevents formation of the Rango-importin beta complex. Rango CFP/YFP FRET sensor + importin beta, 45 min. Potency, µM (highest dose often 92.2 µM), for the others: top-dose inhibition of complex formation. 340,000 tested, 0.031% active; active = rising FRET ratio curve, often small or poorly fitted; inconclusive = mostly compound fluorescence or quenching in the first reads; inactive = flat curves in all reads;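 further: potency means the concentration at half of the fitted maximal effect; 0% = DMSO wells and 100% = buffer wells lacking importin beta; nearly all actives have a fitted effect of over 15% in size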
#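 FRET biosensor Rango (snurportin 1 IBB between N-terminal EYFP and C-terminal Cerulean), 50 nM in PBS/1 mM DTT/0.02% Tween-20/0.1% BSA, preincubated 5 min RT with compound; 0.125 microM importin beta added, 45 min RT, CFP/YFP FRET ratio read.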
# GLA inh pH 4.5 – blocks human alpha-galactosidase A at pH 4.5; 230,000 tested, under 10 active; purified enzyme, 4-MU-alpha-Gal fluorescence, pH 4.5; activity change, negative = inhibition, % at 105 µM; P06280; inconclusive = small, poorly fitted or top-dose-only inhibition, or a rising curve; inactive = flat fitted curve, though single readings scatter; no compound was filed as active;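 further: 0% = full activity with enzyme and -100% = basal without enzyme; dose as in the result columns while the protocol names 77 µM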
# Target sequence (P06280 whole entry, looked up): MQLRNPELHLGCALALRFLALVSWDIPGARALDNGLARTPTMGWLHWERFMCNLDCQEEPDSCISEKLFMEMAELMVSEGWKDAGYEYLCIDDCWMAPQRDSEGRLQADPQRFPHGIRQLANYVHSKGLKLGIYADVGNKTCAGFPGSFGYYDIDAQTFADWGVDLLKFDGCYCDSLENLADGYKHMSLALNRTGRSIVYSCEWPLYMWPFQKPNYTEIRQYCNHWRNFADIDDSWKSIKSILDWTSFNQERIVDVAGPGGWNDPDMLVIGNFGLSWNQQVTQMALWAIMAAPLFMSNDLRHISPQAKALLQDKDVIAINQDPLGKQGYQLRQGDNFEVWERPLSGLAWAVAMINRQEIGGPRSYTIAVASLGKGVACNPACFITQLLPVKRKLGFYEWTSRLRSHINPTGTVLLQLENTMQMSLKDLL
# miR-21 reporter – raises the signal of a miR-21 reporter. HeLa miR-21 FLuc reporter, luciferase, 48 h. 340,000 tested, under 10 active. Potency, µM (doses to about 38.3 µM), without a hit: top-dose reporter change, positive = more light; active = well fitted rising curve with a large enough effect; inconclusive = small, poorly fitted or top-dose-only effect; inactive = no such curve, though single readings can be large or run the other way;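 further: % of control where 0% means no effect; miR-21 action dims this reporter so a rising signal means less miR-21 action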
#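 Compounds were titrated across several concentrations (up to approximately 40 uM) and incubated 48 hours with HeLa miR-21-FLuc reporter cells (miR-21 target sequence downstream of FLuc, endogenous miR-21). Readout was firefly luciferase luminescence after lytic detection reagent.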
# Rango release inh – inhibitors of RanGTP-induced Rango-importin beta complex dissociation. O95149+P62826. Biochemical FRET Rango-importin beta, RanGTP-induced dissociation. Potency, µM (series often up to 46.1 µM), inactives show at the top dose activity change, negative = inhibition. 340,000 tested, 0.071% active. AID 540253; active means falling FRET ratio curve, often poorly fitted, with flat reads before Ran was added; inconclusive means other falling curves, or compound fluorescence or quenching; inactive means flat or rising ratio curve;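 further: potency means the concentration at half of the fitted maximal effect; % of control where 0% means no effect; nearly all actives have a fitted effect of over 45% in size; -100% = wells without RanGTP and RCC1; the record marks most hits as doubtful in a second field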
#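 Compounds sat 5 min at room temperature with 0.1 uM Rango biosensor plus 0.25 uM importin beta, then FRET pre-read. RanGTP-RCC1 (0.6 uM Ran, 2mM GTP, 0.2 uM RCC1) added for 45 min, and the CFP/YFP post-read measured blocked complex dissociation.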
# The depositor's hits bear a star; ? = inconclusive; · = no result given; & = joins results of further samples. Not all compounds are listed (hit frequency here may not be typical).
SMILES,Rango complex inh,GLA inh pH 4.5,miR-21 reporter,Rango release inh
COc1ccc(C2(O)CN(c3ccccc3)C3=[N+]2CCS3)cc1OC (configuration not stated),-1.2%,-4,-4%,3%
O=C(COC(=O)c1cc(F)c(F)cc1Cl)NC1CC1,-1.1%,2,1%,22%
O=c1[nH]ncc(NCCc2ccccc2)c1Cl,0.0%,1,-14%,-5%
O=C(Oc1nsnc1N1CCOCC1)N(c1ccccc1)c1ccccc1,1.6%,2,-14%,-10%
CCCCSc1nc2ccc(Nc3nc(N4CCOCC4)nc(N4CCOCC4)n3)cc2s1,-0.2%,-7,-9%,0%
COc1cc(OC)c(OC)cc1CNC(=O)c1ccc(S(=O)(=O)N2CC(C)OC(C)C2)cc1 (configuration not stated),-0.3%,·,·,2%
Cc1c(C(=O)N2CCN(c3ccccc3F)CC2)oc2c1C(=O)CC(C)(C)C2,7.0%,·,-2%,-6%
COc1ccc(NC(=S)N2CCN(S(=O)(=O)c3ccc(C)cc3)CC2)cc1,-0.5%,·,-7%,5%
CCC(C)n1c(SCC(=O)NC(=O)Nc2ccc3c(c2)OCCO3)nc2ccccc2c1=O (configuration not stated),3.2%,-14,-17%,-2%
O=C(NCc1ccco1)C1CCN(C(=O)c2cc3sccc3n2Cc2ccc(F)cc2)CC1,0.6%,?,25%,-3%
CCOc1ccc(S(=O)(=O)N2CCC(C(=O)OCc3ccc(OC)cc3)CC2)cc1,2.2%,·,·,5%
NC(=O)N=Nc1c(O)n(Cc2ccccc2)c2ccc(Br)cc12,-0.6%,·,-13%,-8%
CCOC(=O)c1ccc(NC(=O)CSc2nnc(-c3ccncc3)n2C)cc1,?,-2,-8%,1%
Nn1c(SCC(=O)Nc2ccc(N3CCOCC3)cc2)nnc1C1CC1,0.4%,·,·,2%
CCc1n(CC(O)COCc2ccccc2)c2ccccc2[n+]1C (configuration not stated),-4.7%,-16,2%,0%
CC1CCN(C(=O)c2ccccc2NC(=O)c2cccs2)CC1,0.0%,·,2%,-9%
O=C(Cc1cccs1)Nc1ccc(S(=O)(=O)N2CCCC2)cc1,-5.9%,6,-8%,12%
Cc1nn(S(=O)(=O)N(C)C)c(C)c1CN1C(=O)c2ccccc2C1=O,-0.1%,4,0%,-1%
O=C1CCC(C(=O)N2CCCC(N3CCN(c4cccc(C(F)(F)F)c4)CC3)C2)=NN1 (configuration not stated),-4.3%,·,1%,1%
COc1ccc(C(=O)NC(=S)Nc2cccc(NC(=O)c3ccco3)c2)cc1[N+](=O)[O-],-0.9%,-11,-1%,0%
O=C(NCc1cccnc1)C12CC3CC(CC(Cl)(C3)C1)C2,-0.4%,·,-18%,-3%
COC(=O)c1ccccc1NC(=O)CC(NCc1ccccc1)C(=O)O (configuration not stated),-3.8%,·,·,-2%
CC1(C(=O)CSc2n[nH]c(-c3ccccc3Cl)n2)CCC(=O)O1 (configuration not stated),·,7,-8%,·
Cc1ccsc1/C=N/NC(=O)C1C(=O)NCC1c1ccccc1 (configuration not stated),-0.5%,-1,-9%,-2%
Cc1ccc(Cn2c(=N)c(C(=O)NC3CCCC3)cc3c(=O)n4ccccc4nc32)cc1,?,·,-4%,?

# Given with values under each structure: entries from further up.
# Order of results: Rango complex inh	GLA inh pH 4.5	miR-21 reporter	Rango release inh
- O=c1[nH]ncc(NCCc2ccccc2)c1Cl
 : 0.0%	1	-14%	-5%
- CCc1n(CC(O)COCc2ccccc2)c2ccccc2[n+]1C (configuration not stated)
 : -4.7%	-16	2%	0%
- COc1ccc(C(=O)NC(=S)Nc2cccc(NC(=O)c3ccco3)c2)cc1[N+](=O)[O-]
 : -0.9%	-11	-1%	0%
- CCOC(=O)c1ccc(NC(=O)CSc2nnc(-c3ccncc3)n2C)cc1
 : ?	-2	-8%	1%
- COc1ccc(C2(O)CN(c3ccccc3)C3=[N+]2CCS3)cc1OC (configuration not stated)
 : -1.2%	-4	-4%	3%
- COc1ccc(NC(=S)N2CCN(S(=O)(=O)c3ccc(C)cc3)CC2)cc1
 : -0.5%	·	-7%	5%

# 2 neighbouring compounds out of the list so far, quoted:
SMILES,Rango complex inh,GLA inh pH 4.5,miR-21 reporter,Rango release inh
CCOC(=O)c1ccc(NC(=O)CSc2nnc(-c3ccncc3)n2C)cc1,?,-2,-8%,1%
Nn1c(SCC(=O)Nc2ccc(N3CCOCC3)cc2)nnc1C1CC1,0.4%,·,·,2%

# Continued.
SMILES,Rango complex inh,GLA inh pH 4.5,miR-21 reporter,Rango release inh
Cc1cc2nc(C)c(Cc3ccccc3)c(=O)n2[nH]1,-4.6%,3,-7%,17%
CC1CCN(C(=O)C2COc3ccccc3O2)CC1 (configuration not stated),-0.4%,·,·,-5%
O=C(NC(Cc1ccccc1)C(=O)O)/C(=C/c1ccc(Cl)cc1)NC(=O)c1ccco1 (configuration not stated),?,·,3%,?
Cc1nc([N+](=O)[O-])c(NCCCO)n1Cc1ccccc1,1.0%,-4,2%,0%
O=C(CN1C(=O)S/C(=C\C=C\c2ccccc2)C1=O)N1CCOCC1,-1.2%,-7,-10%,5%
CC(C)C(NC(=O)C1CCC(C(C)(C)C)CC1)C(=O)NCCc1ccc(S(N)(=O)=O)cc1 (configuration not stated),4.0%,·,2%,0%
COc1ccc(-c2cc(NCCc3ccncc3)n3ncnc3n2)cc1,5.6%,-2,-7%,14%
CCCN1Cc2cccc(C(=O)NC(CC(=O)OCC)c3ccc(OCC)c(OC)c3)c2C1=O (configuration not stated),5.4%,0,-13%,-6%
COc1ccc(OCCSc2nnc(-c3ccoc3C)n2C)cc1,4.1%,1,-13%,5%
Cc1ccc(NC(=S)N(CCN2CCOCC2)Cc2ccccc2F)cc1Cl,1.7%,-4,3%,4%
C=CCNS(=O)(=O)c1cc2c3c(c1)CCN3C(=O)CC2,-1.1%,·,5%,0%
CC(=O)Nc1ccc(N2CCC(C)CC2)c([N+](=O)[O-])c1,0.6%,-7,-32%,18%
NC(=O)C1CCN(CC(=O)Nc2cc(S(=O)(=O)N3CCOCC3)ccc2N2CCCC2)CC1,2.7%,·,·,-2%
NNC(=S)Nc1ccc(Cl)cc1,?,-19,-1%,7%
COCCNC(=O)/C(C#N)=C/c1c(N2CCN(c3ccccc3)CC2)nc2c(C)cccn2c1=O,?,·,1%,?
N#CCCn1c(Cl)nc2ccccc21,-3.0%,-18,-2%,9%
Cc1ccnc(NS(=O)(=O)c2ccc(N)cc2)n1,0.0%,-1&-2,-27%,-1%
CCc1cc(CNC(=O)C2CCC(=O)N(Cc3ccc(Cl)cc3)C2)on1 (configuration not stated),-1.2%,·,-1%,-14%
COc1ccccc1-n1c(CNC(=O)c2ccco2)nnc1SCC(=O)Nc1nccs1,-2.0%,-2,2%,14%
CCN(Cc1ccccc1)C(=O)CCc1nnc(CCCc2ccccc2)o1,-4.5%,0,-33%,-6%
CC(C)CC(=O)c1c[nH]c(C(=O)NCCc2ccccn2)c1,-4.0%,-2,-26%,4%
C[C@]1(C(=O)NCCc2c[nH]c3ccccc23)C=C[C@@H](Cc2ccccc2)N1C(=O)c1ccccc1,-5.4%,0&-12,3%,-8%
CC(Sc1nnc(N)s1)C(=O)Nc1ccc2c(c1)OCCO2 (configuration not stated),3.8%,·,-17%,-24%
COc1cccc(Oc2ccc(S(=O)(=O)N3CCOCC3)cc2[N+](=O)[O-])c1,3.3%,·,·,-2%
O=C(CSc1ccc(C(F)(F)F)cn1)Nc1ccccc1,5.3%,0,8%,12%
# (listing goes on)
SMILES,Rango complex inh,GLA inh pH 4.5,miR-21 reporter,Rango release inh
CCN(Cc1ccc2c(c1)OCO2)C(=O)CSc1ncnc2sccc12,0.3%,·,·,5%
COc1ccc2[nH]c(-c3ccc(C)cc3)cc(=O)c2c1,0.7%,-4,22%,-10%
CCCN1C2=NCCCN2c2ccccc21,7.2%,4,1%,-12%
O=C(Nc1ccccc1N1CCOCC1)C1=COCCO1,1.5%,·,·,-4%
COc1ccc(N(C)C(=O)c2ccc3c(Cl)c4c(nc3c2)CCCC4)c(OC)c1,-2.9%,·,4%,8%
COc1ccccc1C1(CC(=O)Nc2nccs2)CCOC(C(C)C)C1 (configuration not stated),0.0%,1,20%,0%
NC(=O)CC[C@H](NC(=O)OCc1ccccc1)C(=O)OCc1ccc(Cl)cc1,-0.5%,2,-1%,-5%
O=C(OCC(=O)N1CCN(C(=O)c2ccco2)CC1)c1c(Cl)cccc1Cl,3.1%,·,·,-5%
CN=c1scc(-c2ccccc2F)n1/N=C(\C)c1cccnc1,?,6,-20%,-16%
CCOC(=O)CNC(=O)c1ccc(C)cc1,0.3%,4,-1%,-6%
O=C1CC(Cc2ccccc2)C(=O)N1CCCn1ccnc1 (configuration not stated),·,-3,0%,·
CCC(C(=O)OCC(=O)Nc1c(Cl)cc(Cl)cc1Cl)c1ccccc1 (configuration not stated),0.4%,-9,2%,-10%
Cc1cc(C)c(NC(=O)CCCSc2nnc(N)s2)c(C)c1,5.7%,-19,-2%,-7%
O=C(CCCn1c(=S)[nH]c2cc3c(cc2c1=O)OCO3)N1CCN(c2ccccc2)CC1,2.8%,3,0%,1%
Cc1ccc(OCC(=O)NC2CCSc3ccccc32)cc1 (configuration not stated),-1.9%,·,·,9%
CC(C)c1ccc(C2/C(=C(\O)c3ccc4c(c3)OCCO4)C(=O)C(=O)N2CCN2CCOCC2)cc1 (configuration not stated),0.0%,·,-1%,3%
CCCCN(C)CCNC(=O)CCn1nc(-c2ccc(C)cc2)ccc1=O,3.4%,·,-2%,-15%
Cc1cc(C)c2nc(-n3nc(C)cc3N)cc(C)c2c1,-0.9%,-8,-41%,-5%
O=C(O)c1cccc2cc(-c3ccccc3)oc(=O)c12,3.4%,·,-3%,9%
Clc1ccc(CN2CCC(c3ccccc3)CC2)cc1,-3.3%,·,-7%,-5%
COc1cc(C(=O)Nc2ncccc2C)ccc1OCC(=O)N1CCOCC1,0.9%,·,·,-13%
C[C@H]1CN=C(Nc2ccccc2)N1CC1CCCCC1,3.1%,·,0%,31%
Cc1ccc(/C=C2\Oc3c(ccc(O)c3CN3CCN(C)CC3)C2=O)cc1,?,-15,-18%,?
COc1ccc(C(=O)N=c2c(C#N)cc3c(=O)n4cccc(C)c4nc3n2Cc2ccco2)cc1,·,1,-8%,·
O=[N+]([O-])c1ccc(N2CCN(CC(O)COc3ccccc3)CC2)cc1 (configuration not stated),0.1%,-13,-2%,-17%
# New compounds follow:
SMILES,Rango complex inh,GLA inh pH 4.5,miR-21 reporter,Rango release inh
CC(=O)Nc1ccc(C(=O)N2CCN(C(=O)c3ccco3)CC2)cc1,1.3%,-6,-1%,4%
CCCN(Cc1nnc(-c2cccs2)o1)C(=O)c1cccc(S(=O)(=O)N2CCOCC2)c1,-1.6%,·,·,14%
CCC(C)Oc1nc2ccccc2nc1NS(=O)(=O)c1ccccc1 (configuration not stated),-1.3%,2,1%,-3%
Cc1ccc2c(c1)N(CCCC(=O)NCCCN1CCCCC1)C(=O)CO2,-1.9%,·,-3%,-4%
Nc1cccc(Nc2ncnc3ccccc23)c1,-4.8%,·,4%,0%
O=C(C1=C[C@H](c2ccccc2)C[C@H](OCc2ccc(CO)cc2)O1)N1CCN(Cc2ccc3c(c2)OCO3)CC1,7.0%,-1,20%,-17%
O=S(=O)(c1cnccc1N1CCN(/N=C/c2ccccc2)CC1)N1CCCCC1,2.0%,-20,-8%,-2%
O=C1Cc2cc(NS(=O)(=O)c3ccc(Cl)cc3)cc3c2N1CCC3,-1.6%,·,·,-1%
CCOc1ccc(NS(=O)(=O)c2ccc(C(=O)NCC3(N4CCCCC4)CCCCC3)cc2)cc1,-1.4%,·,0%,3%
COc1ccc2c(c1OC)C(=O)N1N=C(c3ccc(Br)cc3)CC21 (configuration not stated),2.4%,4,-4%,-11%
CCN1C(=O)/C(=C\c2ccncc2)SC1=Nc1ccc(C)c(C)c1,0.7%,-6,-10%,-7%
C=CCNC(=O)COc1ccc(S(=O)(=O)Nc2ccc(OCC)cc2)cc1,0.4%,11,1%,25%
COC(=O)c1ccccc1NC(=O)/C=N/O,0.1%,-1,-4%,5%
Cc1ccc(/C=N/NC(=O)CN(Cc2ccccc2)S(=O)(=O)c2ccc3c(c2)OCCO3)cc1,1.1%,-9,-6%,-5%

# Screening results: PubChem, National Center for Advancing Translational Sciences (NCATS)
